2A StopGo: lowers the luciferase signal of an FMDV 2A StopGo reporter. 1.2% of 410,000 active. Potency, µM (top dose mostly 57.9 µM), for the others: at the top dose signal change, negative = less light. human cells with a luciferase reporter of 2A StopGo recoding; control for the full effect not named in the record; active = well fitted falling curve with a large enough effect; inconclusive = small, poorly fitted or top-dose-only effect; inactive = no such curve, though single readings can be large or run the other way; tested in HEK293T cells; note: % is set by controls: 0 for no effect and ±100 for the full control effect; nearly all actives have a fitted effect of over 45% in size; luciferase light after 4 h
Cruzain inh noDet: blocks cruzain activity in detergent-free assay; P25779; purified cruzain, Z-FR-AMC fluorescence, no detergent; Potency, µM, inactives show max response, negative = inhibition, actives largely listed as inhibitors; 2.3% of 200,000 active; AID 1476; active = well fitted curve in the direction sought with a large enough effect; inconclusive = small, poorly fitted or top-dose-only effect, or another doubt; inactive = no such curve, though single readings can be large; an effect the other way counts as inactive or inconclusive;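 note: plate controls were enzyme without inhibitor for no effect and buffer without enzyme for full effect; nearly all actives have a fitted effect of over 40% in size; top concentration of the series not given in the record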
Target sequence (P25779 123-467 limits assumed): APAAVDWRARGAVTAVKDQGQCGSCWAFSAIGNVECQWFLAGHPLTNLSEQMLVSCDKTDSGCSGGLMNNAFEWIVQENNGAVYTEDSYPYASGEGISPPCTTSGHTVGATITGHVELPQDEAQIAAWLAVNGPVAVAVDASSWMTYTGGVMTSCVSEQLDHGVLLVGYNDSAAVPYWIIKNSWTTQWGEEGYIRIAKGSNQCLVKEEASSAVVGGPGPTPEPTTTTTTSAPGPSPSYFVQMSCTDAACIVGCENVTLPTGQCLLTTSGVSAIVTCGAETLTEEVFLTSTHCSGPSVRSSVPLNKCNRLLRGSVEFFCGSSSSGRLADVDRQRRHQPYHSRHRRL
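Purified cruzain at 1.5 nM, pre-incubated 15 min with compound at room temperature in 100 mM sodium acetate pH 5.5, 5 mM DTT, 0.00005% Triton X-100. Reaction started with 2 uM Z-FR-AMC; AMC fluorescence increase over 60 s gives rate.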
LASV entry inh: inhibitors of Lassa virus binding or cell entry; Lassa virus pseudotype entry inhibition, cell reporter; control for the full effect not named in the record; Potency, µM (highest dose often 37.9 µM), without a hit: at the highest dose activity change, negative = inhibition, hits mostly inhibitors; 1.2% of 300,000 active; AID 540256; active means well fitted inhibition curve with a large enough effect; inconclusive means small, poorly fitted or top-dose-only effect, or effect the other way; inactive means flat fitted curve, though single readings scatter; tested in HEK293 cells; note: % is set by controls: 0 for no effect and ±100 for the full control effect; nearly all actives have a fitted effect of over 50% in size; luciferase read-out
SARS PLP yeast: SARS-CoV PLP inhibition in yeast. S. cerevisiae expressing SARS-CoV PLpro, growth rescue; control for the full effect not named in the record. Potency, µM (top dose mostly 32.9 µM), inactives show at the highest dose activity, positive = growth rescue. 0.19% of 330,000 active; note: 0% is about no effect; nearly all actives have a fitted effect of over 55% in size; growth read by luminescence after 48 h
RE007 growth inh: less growth of the S. pombe RE007 Vpr strain; S. pombe RE007 Vpr strain, BacTiter-Glo ATP luminescence, 24 h; control for the full effect not named in the record; Potency, µM (top dose mostly 92.2 µM), inactives show at the top dose activity change, negative = less growth; 0.21% of 360,000 active; AID 651644; active = well fitted falling curve with a large enough effect; inconclusive = small, poorly fitted or top-dose-only effect; inactive = no such curve, though single readings can be large or run the other way;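 note: % is set by controls: 0 for no effect and ±100 for the full control effect; nearly all actives have a fitted effect of over 50% in size; the assay follows cell death caused by Vpr and the record does not say whether a fall means rescue or toxicity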
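Fission yeast RE007 carrying one integrated HIV-1 vpr copy, seeded at OD 0.01 in PMG+AL medium with 23 nL pinned compound. Grown 24 h at 30 degrees; viability read by BacTiter-Glo luminescence after 5 min.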
Cruzain inh Det: cruzain (T. cruzi) inhibition with detergent; P25779; purified cruzain, Z-FR-AMC fluorescence, 0.01% Triton; Potency, µM, without a hit: max response, negative = inhibition, actives largely listed as inhibitors; 0.43% of 200,000 active; active = well fitted curve in the direction sought with a large enough effect; inconclusive = small, poorly fitted or top-dose-only effect, or another doubt; inactive = no such curve, though single readings can be large; an effect the other way counts as inactive or inconclusive;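 note: plate controls were neutral wells for no effect and buffer without enzyme for full effect; nearly all actives have a fitted effect of over 40% in size; top concentration of the series not given in the record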
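Cruzain (1.5 nM) preincubated 15 min at RT with compound in 100 mM sodium acetate pH 5.5, 5 mM DTT, 0.01% Triton X-100. Reaction started with 2 uM Z-FR-AMC; AMC fluorescence (ex 360/em 450 nm) change over 60 s gave rate.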
Marburg entry inh: inhibitors of Marburg virus binding or cell entry; Marburg virus pseudotyped entry inhibition, cell reporter; control for the full effect not named in the record; about a third of the inactives were read at about 46 µM; Potency, µM (series often up to 37.8 µM), for the others: at the top dose activity change, negative = inhibition, hits mostly inhibitors; 1.8% of 300,000 active; AID 540276; active = well fitted inhibition curve with a large enough effect; inconclusive = small, poorly fitted or top-dose-only effect, or effect the other way; inactive = flat fitted curve, though single readings scatter; tested in HEK293 cells; about a fifth of its hits are not listed in these tables; note: % is set by controls: 0 for no effect and ±100 for the full control effect; luciferase read-out
NS1 function inh: influenza NS1 inhibition; S. cerevisiae slowed by influenza A NS1, growth recovery by OD600; Potency, µM (series often up to 46.1 µM), for the others: at the top dose activity, positive = more growth; 0.4% of 270,000 active; AID 2326; note: actives are rising curves; nearly all actives have a fitted effect of over 50% in size
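Read-out: OD600 growth recovery of NS1-expressing budding yeast. Cells grown overnight at 30C in -URA glucose medium, washed, resuspended and diluted 1:100 in 2% galactose assay medium, pH 6.0. Same strain lacking NS1 served as positive control.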
Active calls of the source: *; ? = inconclusive; / = no result given; [ ] = another dose, or the depositor's remark. Unless noted, calls come from the whole dose curve; as a rule, active means well fitted rising curve with a large enough effect; inconclusive means small, poorly fitted or top-dose-only effect; inactive means no such curve, though single readings can be large or run the other way. Potency is the fitted concentration of half-maximal effect.

no.	mol	SARS PLP yeast	2A StopGo	Cruzain inh noDet	Marburg entry inh	NS1 function inh	Cruzain inh Det	LASV entry inh	RE007 growth inh
1	COc1ccc(-n2c(SCC(=O)Nc3ccccc3OC)nc(O)c(Cc3ccccc3)c2=O)cc1	3%	-11%	/	-21%[46.1 µM]	0%	/	21%[46.1 µM]	10%
2	O=C(NCCCN1CCOCC1)c1cccc(S(=O)(=O)Nc2cc(Cl)ccc2Cl)c1	0%	0%	/	1%[46.1 µM]	1%	/	/	-9%
3	COc1ccc(NC(=O)Cn2c(=O)n(Cc3ccccc3Cl)c(=O)c3cc(OC)c(OC)cc32)cc1OC	/	5%	-16%	-12%[46.1 µM]	/	-1.3%	-14%[46.1 µM]	/
4	CCC(C)Sc1nnc(-c2c[nH]c3ccccc23)n1CCOC (stereo not drawn)	9%	6%	5%	-3%	-6%	3.6%	-2%	3%
5	O=C(CCn1c(=S)[nH]c2cc3c(cc2c1=O)OCO3)NCc1ccc(Cl)cc1	-6%	-13%	/	-13%[46.1 µM]	1%	/	8%[46.1 µM]	-7%
6	CCOCCc1nn2c(=O)cc(COC(=O)c3ccccc3OC)nc2s1	/	-10%	14%	/	/	-2.2%	-19%[46.1 µM]	/
7	Cc1nc(N2CCN(c3ccccn3)CC2)c2c(C)c(C(=O)N3CCN(c4cccc(Cl)c4)CC3)sc2n1	0%	?	/	?	15%	/	?	-2%
8	Cc1ccc2c(c1)CCCN2CC(=O)N(C)c1c(N)n(Cc2ccccc2)c(=O)[nH]c1=O	-6%	-25%	/	-13%	/	/	0%	-24%
9	C[C@@H](C(=O)NCCc1ccccc1)N1C(=O)N2CCc3c([nH]c4ccccc34)[C@@]2(C)C1=O	-24%	-33%	/	/	-95%	/	/	-4%
10	COc1cc2c(cc1OC)CN(S(C)(=O)=O)CC2	-4%	-10%	-2%	/	4%	4.1%	/	-2%
11	CCCCN(C)c1nc2c(S(=O)(=O)c3ccc(CC)cc3)nnn2c2ccc(Cl)cc12	/	-7%	7%	?	/	-0.1%	/	/
12	COC(=O)N/N=C/c1ccccc1Cl	1%	-5%	/	8%[46.1 µM]	/	/	?	6%
13	CCOc1ccc(CNC(=O)C2CCN(C(=O)N3CC(CC)Oc4ccccc43)CC2)cc1 (stereo not drawn)	/	0%	11%	/	/	-2.3%	-2%[46.1 µM]	/
14	COc1ccccc1CNC(=O)CSc1ccc(-c2sc(-c3ccccc3)nc2C)nn1	/	-18%	-6%	/	/	-0.5%	-28%[46.1 µM]	/
15	CCOc1ccc(NC(=O)Cn2c(=O)n(CCc3ccccc3)c(=O)c3c4c(sc32)CCCC4)cc1	/	-5%	-11%	9%[46.1 µM]	/	-5.2%	-6%[46.1 µM]	/
16	CCN1CCN(C(=O)c2ccccc2N(C)S(=O)(=O)c2ccc(C)cc2)CC1	-9%	1%	-13%	4%	0%	3.7%	-17%	6%
17	Cc1ccccc1CNC(=O)Nc1ccc(Cl)cc1	-5%	16%	/	?	0%	/	-6%[46.1 µM]	9%
18	COc1ccc(CCN(C)c2ccc(S(=O)(=O)N3CCCC3)cc2[N+](=O)[O-])cc1OC	-17%	?	?	-32%	8%	-5.9%	?	/
19	CCn1c(=O)cc(SCC(=O)N2CCOCC2)c2ccccc21	4%	4%	1%	10%	4%	-1.3%	-41%[14.3 µM]	5%
20	COc1cccc(CNC(=O)CCC2CCCN(C(=O)CCC(F)(F)F)C2)c1 (stereo not drawn)	-1%	8%	/	?	0%	/	-30%[46.1 µM]	-17%
21	O=S(=O)(c1cc(Cl)ccc1Cl)N1CCN(c2ccccn2)CC1	1%	-20%	/	9%[46.1 µM]	1%	/	/	-21%
22	CC1CCN(S(=O)(=O)c2ccc3c(c2)N(CC(=O)NCCN(C)C)C(=O)CS3)CC1	/	-12%	1%	4%[46.1 µM]	/	-0.3%	/	/
23	O=C(CN1C2=NCCCN2c2ccccc21)c1ccc2c(c1)OCO2	-1%	/	4%	?	0%	-3.3%	?	-3%
24	Cc1ccc(CNC(=O)c2cccc3c2C(=O)c2ccc(N4CCOCC4)cc2S3(=O)=O)cc1	6%	0%	/	5%	/	/	/	0%
25	C=CCN1C(=O)C(CC(=O)O)SC1=Nc1cccc([N+](=O)[O-])c1 (stereo not drawn)	0%	-4%	/	0%[46.1 µM]	/	/	/	-2%
26	COc1cc(C2c3c(oc4ccccc4c3=O)C(=O)N2c2nnc(C(C)C)s2)cc(OC)c1OC (stereo not drawn)	/	-2%	3%	?	/	-1.1%	-7%[46.1 µM]	/
27	Cc1cc2nn(-c3ccccc3)nc2cc1NC(=O)Cc1ccc(Cl)cc1	/	18%	3%	/	/	0.6%	?	/
28	c1coc(-c2nnc(-c3ccco3)nn2)c1	-9%	12%	/	16%[46.1 µM]	9%	/	25%	14µM*
29	COc1cccc(OCCNC(=O)Nc2cc(F)c(F)cc2Cl)c1	1%	-13%	/	?	/	/	-2%[46.1 µM]	-3%
30	C[C@@H]1CC=C[C@H]2[C@H]1C(=O)N(Cc1ccccc1)[C@H]2c1ccc2ccccc2c1/C=C/c1ccccc1	-1%	0%	/	/	0%	/	/	0%
31	CCC(=O)OCc1c(C(F)(F)F)nn(C)c1Oc1cccc(C(F)(F)F)c1	1%	5%	3%	-2%	-6%	-2.0%	0%	-10%
32	CC1=CC(C)C2C(=O)N(CCCN(C)C)C(=O)C2C1 (stereo not drawn)	6%	-13%	1%	2%[46.1 µM]	-2%	5.4%	-4%	1%
33	CC(=O)c1cc2c(cc1N(C(=O)Cn1nnc3ccccc31)C(C(=O)NCCC(C)C)c1cccnc1)OCO2 (stereo not drawn)	1%	-3%	/	1%[46.1 µM]	1%	/	-3%[46.1 µM]	2%
34	COc1ccc2c(c1)Cc1sc(NC(=O)c3ccccc3)nc1-2	-11%	6%	-2%	-13%[46.1 µM]	-2%	2.0%	-23%	-21%
35	COc1ccc(C2=NS(=O)(=O)N(C)C(C(=O)N(C)Cc3ccccc3)=C2)cc1OC	-2%	?	-12%	-8%[46.1 µM]	17%	-7.7%	-7%[46.1 µM]	-4%
36	COc1ccc(CNC(=O)c2cc(-c3ccc(OC)cc3)nc3n[nH]c(-c4cccc([N+](=O)[O-])c4)c23)cc1	/	-27%	10%	/	/	1.6%	2%[46.1 µM]	/
37	CN(C)c1ccc(NC(=O)c2ccc([N+](=O)[O-])cc2Cl)cc1	16%	24%	?	?	19%	-0.8%	?	6%
38	COc1ccc(CC(=O)Nc2ccc(S(=O)(=O)Nc3nc(C)cc(C)n3)cc2)cc1	0%	60%[activator]	-1%	0%	7%	3.1%	-3%	16%
39	COC(=O)CCCC(=O)N(C)CC1CCCN(CCc2ccccc2C)C1 (stereo not drawn)	/	-5%	/	-4%[46.1 µM]	/	/	0%[46.1 µM]	-13%
40	CC1CC(C)(C)NC(=S)N1CCC(=O)N1CCN(c2ccccc2)CC1 (stereo not drawn)	-3%	-4%	/	1%	/	/	9%	-4%
41	CC(C)c1ccc(NC2CCCN(C(=O)c3cccc4nccnc34)C2)cc1 (stereo not drawn)	-5%	-14%	/	/	-3%	/	/	2%
42	Cc1ccc(C(OCCN(C)C)c2cccc(C(F)(F)F)c2)cc1 (stereo not drawn)	-21%	-29%	-15%	21µM*	-9%	-5.8%	?	3%
43	Cc1nc2ccccn2c1P(=S)(N1CCCCC1)N1CCCCC1	-42%	?	7%	?	-12%	2.4%	-3%	17%
44	CCSc1nnc(NC(=O)NC2CCCCC2)s1	-1%	27%	/	?	/	/	21%[46.1 µM]	0%
45	COCCOC(=O)c1c(C)oc2ccc(OC(=O)c3ccco3)cc12	-56%	23%	10%	22%	-37%	-8.1%	16%	-9%
46	COc1ccc(-c2cc(C(F)(F)F)c(C#N)c(SCC(=O)Nc3cccc(C)c3)n2)cc1	/	-22%	-9%	3%[46.1 µM]	/	-0.8%	0%[46.1 µM]	/
47	COc1ccccc1NC(=O)CSc1nncn2c1cc1sccc12	/	-15%	21%	/	/	-1.4%	10%[46.1 µM]	/
48	N=c1n(CC(=O)c2ccc([N+](=O)[O-])cc2)c2ccccc2n1Cc1ccccc1Cl	-5%	28µM*	?	?	0%	1.0%	-11%	3%
49	CN1CCN(C(=O)c2cnn(-c3ccccc3)c2NC(=O)c2ccccc2)CC1	0%	1%	/	16%	0%	/	3%	12%
50	CCn1c(=O)cc(OCC(=O)NCCCN2CCCC2=O)c2ccccc21	17%	-7%	/	?	7%	/	18%[46.1 µM]	9%
51	Cc1ccnc(Nc2nc3ccccc3o2)n1	-11%	-33%	-4%	/	7%	2.3%	/	-21%
52	CC(=O)c1ccc(N2C(=O)C3C4C=CC(CC4)C3C2=O)cc1 (stereo not drawn)	1%	0%	/	/	0%	/	/	-3%
53	Cn1c(SCC(=O)Nc2ccc(F)cc2)nc2c(c1=O)SCC2	6%	0%	/	?	-6%	/	?	0%
54	COc1ccccc1NC(=O)c1c(NCc2ccc(C)o2)sc2c1CCC(C)C2 (stereo not drawn)	/	-14%	0%	/	/	-12%	27%[46.1 µM]	/
55	Cc1ccc(C)c(C(=O)Nc2cc(C)nn2-c2nc(C)cc(C)n2)c1	-1%	?	/	?	/	/	?	0%

Retrieved by structure from above:
no.	mol	SARS PLP yeast	2A StopGo	Cruzain inh noDet	Marburg entry inh	NS1 function inh	Cruzain inh Det	LASV entry inh	RE007 growth inh
47	COc1ccccc1NC(=O)CSc1nncn2c1cc1sccc12	/	-15%	21%	/	/	-1.4%	10%[46.1 µM]	/
49	CN1CCN(C(=O)c2cnn(-c3ccccc3)c2NC(=O)c2ccccc2)CC1	0%	1%	/	16%	0%	/	3%	12%
41	CC(C)c1ccc(NC2CCCN(C(=O)c3cccc4nccnc34)C2)cc1 (stereo not drawn)	-5%	-14%	/	/	-3%	/	/	2%

Compound activity deposited in PubChem BioAssay by National Center for Advancing Translational Sciences (NCATS).
